Sa ugtP lethal = compounds lethal to S. aureus RN4220 ugtP deletion mutant | 0.54% of 330,000 active | OD600 growth, 16 h; some inactives read as strong as hits | growth inhibition, % (concentration not given with the values) | AID 1259309;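 active means z-score under -3 and OD600 up to 0.15 on both plates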;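 further: plate controls were untreated wells for no effect and antibiotic for full effect; wells of about 80 µL received 100 nL stock; the first replicate is given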
Sa RN4220 lethal = S. aureus RN4220 growth inhibition; OD600, 16 h; inhibition, % (concentration not given with the values); 0.33% of 330,000 active; AID 1259311;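 active means z-score of -3 or lower and OD600 up to 0.18 on both plates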;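 further: plate controls were untreated cells for no effect and reference antibiotic for full effect; stock transfer was 100 nL into about 80 µL; one replicate is shown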
Mtb hypoxia inh = reduces hypoxia-regulated biosensor signal in M. tuberculosis; 0.1% of 300,000 active; fluorescence inhibition, % (no concentration beside the values); M. tuberculosis hypoxia-regulated fluorescent reporter, fluorescence;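 active means 35 to 45% if threefold the growth effect, above 45% if 1.5-fold the growth effect; inactive means the rest, general growth blockers included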;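 further: wells of about 50 µL received 100 nL stock; 0% = vehicle wells and 100% = reference inhibitor wells; whole bacteria with a GFP reporter of the hypoxia response; strong numbers were not always called active; many hits fall short of the cut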
PrP 5UTR inh = suppresses PrP 5' UTR mRNA reporter expression; cell-based PrP 5' UTR mRNA reporter, plate reader; inhibition, % (concentration not given with the values); 0.35% of 340,000 active; AID 488862;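 active means every replicate at 50% or more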;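 further: 0 = median of the neutral control wells; tested in H4 reporter cells; numbers are from one replicate; inactives centre near -14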
Autofluor counter = flagged as autofluorescent in microsphere protease counterscreen. fluorescence intensity (concentration not given with the values). compound autofluorescence counterscreen, microsphere flow cytometry; stronger effect = higher value. 3.1% of 360,000 active. AID 624483;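 active means at least 3 SD above the mean of all compounds, about 16000 in these data; inconclusive means too few beads counted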;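 further: 100 nL of 1 mM stock went into each well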
BJeLR viability = kills HRASV12-expressing BJeLR cells. BJeLR (HRASV12) viability, CellTiter-Glo ATP luminescence, 48 h; reference of the scale not given here. inhibition, % (concentration not given with the values). 0.17% of 300,000 active. AID 1554;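 active means replicate mean above 50%; inconclusive means above 50% but judged a plate artefact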;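 further: 50 nL library stock added to about 25 µL; numbers are from one replicate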
Mtb hypoxia inh growth = second read-out of Mtb hypoxia inh, no call of its own (marks repeat the call); growth inhibition, %; measured here: M. tuberculosis growth (absorbance);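 0% = vehicle and 100% = reference antibiotic; read after six days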
Active calls of the source: *; ? = inconclusive; nt = not tested or not shown; & = joins results of further samples. Not a hit list. Share with any hit: about 4%.

SMILES | Sa ugtP lethal | Sa RN4220 lethal | Mtb hypoxia inh | Mtb hypoxia inh growth | PrP 5UTR inh | Autofluor counter | BJeLR viability
COC(=O)C(F)(Sc1c(C)n(C)n(-c2ccccc2)c1=O)C(F)(F)F (stereo not drawn) | -4 | 2.4 | 0 | 6 | -17 | 12749 | 5
CC1CCCC(NC(=O)CNC(=S)N2CC3CC(C2)c2cccc(=O)n2C3)C1C (stereo not drawn) | 3 | 1.5 | 9 | -2 | -18 | 5342 | -7
CSCCC(NC(C)=O)C(=O)Oc1ccc2c3c(c(=O)oc2c1)CCCC3 (stereo not drawn) | -1 | 3.5 | 2 | 8 | -3&41 | 10072 | nt
COc1ccc(NC(=O)CCNC(C)=O)cc1NS(=O)(=O)c1ccc(F)cc1 | -9 | 3.0 | 5 | 8 | -18 | 3841 | -7
CSCSC1=C(C#N)C(c2ccccc2Cl)C(C(C)=O)=C(C)N1 (stereo not drawn) | 6 | 0.0 | 0 | -7 | -28 | 6831 | -1
Cc1ccc(S(=O)(=O)NCC(=O)OCC(=O)N(CCC#N)c2ccccc2)cc1 | 2 | 1.8 | 5 | 1 | 17 | 4420 | nt
Cc1cc(NC(=O)c2ccc(F)cc2)no1 | 11 | -1.5 | 3 | 4 | -32 | 3498 | -1
COc1ccc(-c2cc(C(=O)Nc3cc(S(=O)(=O)N4CCOCC4)ccc3N3CCOCC3)c3ccccc3n2)cc1 | -9 | 2.5 | -13 | 11 | -10 | 4394 | 3
COP(=O)(OC)c1nc(-c2ccc(C)cc2)oc1N1CCCCC1 | 1 | 1.8 | 3 | -2 | 3 | 3590 | -5
COCCn1c(SCC(=O)Nc2ccc(S(N)(=O)=O)cc2)nc2ccccc21 | 0 | -1.9 | 8 | 1 | 6 | 2633 | 6
CC(=O)Nc1cccc(OCC(=O)Nc2ccc(F)cc2)c1 | 2 | 0.2 | 2 | 6 | -19 | 6672 | -13
O=C(CSc1nnc2c(n1)[nH]c1ccc(S(=O)(=O)N3CCOCC3)cc12)Nc1ccc(F)c(F)c1 | -4 | 4.6 | 17 | 9 | -27 | 4989 | -4
Cc1ccc(NC(=O)CCS(=O)(=O)c2cccc3nonc23)c(Br)c1 | 5 | 2.8 | 7 | 16 | -7 | 5342 | -4
COCCNc1ncnc2c1cnn2Cc1ccccc1Cl | 9 | -1.1 | 11 | -3 | 1 | 3122 | 7
COc1ccc2nc(C=NNC(=O)CCCCCNC(=O)OC(C)(C)C)ccc2c1 | -3 | 1.9 | 7 | 21 | nt | nt | nt
Cn1nc(-c2ccccc2)c(C(=O)Nc2ccc(Cl)cc2)c1Cl | -1 | 5.8 | nt | nt | -20 | 2398 | -9
O=C(c1cc2c(s1)CCCC2)N1CCN(S(=O)(=O)c2ccccc2)CC1 | 4 | 1.9 | 1 | 0 | -31 | 4371 | -8
COc1c(C=NNc2nc(N3CCCCC3)nc(N3CCCCC3)n2)cccc1[N+](=O)[O-] | -3 | 1.4 | -4 | 2 | nt | nt | nt
O=C(CCC(=O)Nc1ccc(Br)cc1)N/N=C/c1ccc(O)cc1 | nt | nt | nt | nt | -7 | 3017 | -5
COc1ccccc1NC(=S)N(Cc1ccc(C)cc1)Cc1ccccn1 | -5 | 5.8 | 9 | 6 | 0 | 4145 | -9
NC(=O)c1ccc(NC(=O)c2ccc(COc3ccc(F)cc3)o2)cc1 | -7 | -0.2 | 18 | 8 | 2 | 5808 | nt
Cc1ccccc1C(=O)NC(=S)NC1CCS(=O)(=O)C1 (stereo not drawn) | -1 | -1.0 | 8 | -3 | -23 | 6196 | 0
CC1CCN(C(=O)COC(=O)CNC(=O)c2ccccc2F)CC1 | -3 | -0.8 | -8 | 0 | -19 | 6000 | nt
CC1CCCC(C)N1C(=O)COC(=O)c1n[nH]c(=O)c2ccccc12 (stereo not drawn) | 5 | 1.4 | -2 | 5 | -10 | 3500 | nt
Cc1c(CCOC(=O)c2ccc([N+](=O)[O-])cc2)sc[n+]1CC(=O)c1ccccc1 | -5 | 4.2 | 3 | 0 | -17 | 3885 | -1

Entries of single compounds, quoted from the list. Values in the order: Sa ugtP lethal | Sa RN4220 lethal | Mtb hypoxia inh | Mtb hypoxia inh growth | PrP 5UTR inh | Autofluor counter | BJeLR viability
Results for COC(=O)C(F)(Sc1c(C)n(C)n(-c2ccccc2)c1=O)C(F)(F)F (stereo not drawn) → -4 | 2.4 | 0 | 6 | -17 | 12749 | 5
Results for Cc1ccccc1C(=O)NC(=S)NC1CCS(=O)(=O)C1 (stereo not drawn) → -1 | -1.0 | 8 | -3 | -23 | 6196 | 0

The listing continues.
SMILES | Sa ugtP lethal | Sa RN4220 lethal | Mtb hypoxia inh | Mtb hypoxia inh growth | PrP 5UTR inh | Autofluor counter | BJeLR viability
CCCc1nnc(NC(=O)CCC(=O)NC2CCCC2)s1 | 9 | 1.5 | 6 | 3 | -22 | 5002 | 7
Cc1cc(NC(=O)c2ccc(Cl)c(S(=O)(=O)N3CCOCC3)c2)no1 | 4 | 2.5 | -3 | 19 | -26 | 4753 | 4
Cn1cnc([N+](=O)[O-])c1SCCO | 14 | 3.1 | 15 | 6 | -19 | 4461 | 0
O=C(c1ccc(S(=O)(=O)Nc2ccccc2Cl)cc1)N1CCCC1 | -3 | 9.4 | 6 | 10 | -6 | 3993 | nt
CCOc1ncccc1C(=O)Nc1ccc(Cl)c(S(=O)(=O)N2CCCC2)c1 | 5 | 0.4 | 7 | 2 | -5 | 3816 | 4
CC(NC(=O)c1ccco1)C1COc2ccccc2O1 (stereo not drawn) | 2 | 3.1 | 23 | 17 | -21 | 2811 | -12
Cn1c(=O)c2c(nc(CN3CCN(C(=O)c4ccco4)CC3)n2CC(=O)C(C)(C)C)n(C)c1=O | 12 | 1.5 | 7 | 3 | -17 | 3142 | 2
COc1ccc(/C=C/C(=O)NC(CCSC)C(=O)O)cc1 (stereo not drawn) | -9 | -1.4 | 1 | 16 | -3 | 4746 | 2
CCn1cc(C2N3CC4(C)CN2CC(C)(C3)C4=O)c2ccccc21 (stereo not drawn) | -4 | 0.5 | 5 | 4 | -23 | 4015 | 1
Cc1ccccc1NC(=O)CCN1CCCC1 | 2 | -0.8 | 0 | 3 | -25 | 4521 | 2
COc1cc2ccccc2ccc1=NO | -5 | 1.4 | 8 | 26 | 8 | 3632 | nt
O=C(O)c1cccc(NC(=O)c2cn(-c3ccccc3)nc2-c2ccc(F)cc2)c1 | 18 | 1.1 | -6 | -11 | -22 | 3921 | -2
N#Cc1ccc(COn2nnc3ccccc32)cc1 | 9 | 6.9 | 7 | 7 | -23 | 4589 | 0
Cc1ccc(Nc2nc3c([nH]2)c(=O)n(C)c(=O)n3C)cc1 | 2 | 3.3 | 1 | 5 | -10 | 20196* | 4
CCOC=Nc1c(C#N)c2c(c(=S)n1C)COC(C)(C)C2 | -2 | -16 | 6 | 9 | nt | nt | nt
COc1ccccc1CC(=O)N(CCC1=CCCCC1)c1c(N)n(Cc2ccccc2)c(=O)[nH]c1=O | 6 | 1.7 | 1 | 2 | -80 | 5676 | 3
Cc1cccc(Nc2cc(=O)n(C)c(=O)[nH]2)c1 | -3 | 4.1 | -4 | 10 | -6 | 3642 | 22
CCOc1ccc(S(=O)(=O)N2CCCCC2)cc1NC(=O)Cc1ccsc1 | -3 | -4.2 | -7 | 5 | -10 | 6128 | nt
Clc1ccccc1CSc1nnc(-c2ccncc2)o1 | 5 | 5.6 | nt | nt | -55 | 6055 | 9
COc1ccc(C(CC(=O)N2CCCC2)c2c(O)cc(OC)cc2OC)cc1 (stereo not drawn) | 3 | 4.8 | 3 | -3 | -14 | 3558 | -10
CCC(C)NC(=O)C1CCC(=O)N(c2cc(OC)c(OC)c(OC)c2)C1c1ccc(OC)cc1 (stereo not drawn) | 5 | 6.1 | 5 | 8 | -17 | 8871 | -3
CCCn1cnc2cc(NCc3ccccn3)ccc21 | 9 | 0.5 | 2 | 8 | -36 | 4289 | 13
c1coc(CNC2C3CC4CC(C3)CC2C4)c1 (stereo not drawn) | 9 | 7.5 | 3 | 0 | -21 | 7115 | -3
COC(=O)CCCCC1SCC(NC(=O)c2ccccc2)C1=O (stereo not drawn) | 1 | 9.1 | 3 | 12 | -16 | 2654 | 6
CCN1CCN(c2sc(S(C)(=O)=O)nc2S(=O)(=O)c2ccc(C)cc2)CC1 | 2 | 1.4 | 5 | 4 | -8 | 6622 | -4

(listing goes on)
SMILES | Sa ugtP lethal | Sa RN4220 lethal | Mtb hypoxia inh | Mtb hypoxia inh growth | PrP 5UTR inh | Autofluor counter | BJeLR viability
O=C(NCc1ccc2c(c1)OCO2)NC1CCCCC1 | 2 | 2.2 | 7 | 22 | -27 | 4798 | -12
CC(N=C1NS(=O)(=O)c2ccccc21)C(=O)NCCCc1ccccc1 (stereo not drawn) | 2 | 3.4 | 2 | 3 | -20 | 4444 | -11
CCS(=O)(=O)Nc1cccc(C2=NN(S(=O)(=O)c3ccc(C)cc3)C(c3cccs3)C2)c1 (stereo not drawn) | 0 | 12 | 1 | 4 | 2 | 7629 | -4
Cc1c(Cl)cccc1NC(=O)C1Cc2ccccc2CN1C(=O)c1ccccc1 (stereo not drawn) | -1 | 2.9 | 0 | 3 | -9 | 2626 | 12
Cc1cccc(OCC(=O)Nc2sc3c(c2C#N)CCC3)c1 | -4 | 2.1 | 13 | 9 | -47 | 6085 | -5
O=C(COc1cccc2ccccc12)N1CCN(c2ccccc2)CC1 | 11 | -4.8 | nt | nt | -1 | 2341 | 0
Cc1nnc(NC(=O)C2CCCN(c3ncccn3)C2)s1 (stereo not drawn) | -1 | -0.8 | -14 | 2 | -7 | 22811* | nt
O=C(O)C1C2CCC(O2)C1C(=O)NCc1ccncc1 (stereo not drawn) | -5 | -15 | 0 | 5 | -9 | 3406 | -1
CC(=O)c1ccc(NC(=O)CSc2nnc(Cn3c(=O)sc4ccccc43)n2C)cc1 | 5 | -0.2 | nt | nt | -54 | 5239 | nt
O=C(CC(=O)c1ccccc1)Nc1ccccc1 | -4 | 2.0 | 9 | -3 | -63 | 3032 | 0
Cn1cccc1C(=O)NC(=O)COC(=O)C12CC3CC(CC(O)(C3)C1)C2 | 3 | -0.9 | nt | nt | -7 | 2667 | 0
O=C(NC(=S)NCc1ccccc1)c1cccnc1 | -1 | 3.3 | 1 | -2 | -32 | 4147 | -1
CC(=O)NCCC(=O)Nc1sc2c(c1-c1nc3ccccc3[nH]1)CCCC2 | -17 | 0.8 | 7 | -1 | -9 | 3836 | 8
Cc1coc2cc3oc(=O)ccc3cc12 | -10 | -0.9 | -12 | 9 | -5 | 3896 | 3
CCC1CCCCN1C(=S)NC(=O)c1ccc([N+](=O)[O-])cc1 (stereo not drawn) | 10 | 5.2 | 4 | 2 | -8 | 2540 | 3
O=C(OC(C(=O)c1c[nH]c2ccccc12)c1ccccc1)c1cnccn1 (stereo not drawn) | 11 | 13 | 11 | -9 | -6 | 4363 | 11
CCN(CC(=O)NCc1cccs1)C(=O)c1ccccc1F | 3 | 2.3 | -2 | 2 | -38 | 4310 | 0
NS(=O)(=O)c1cccc(NC(=O)CSc2n[nH]c(-c3ccccc3Br)n2)c1 | -1 | -2.1 | 3 | 0 | -18 | 2881 | nt
COc1ccc2[nH]cc(C(=O)CN3CCCC(C)C3)c2c1 (stereo not drawn) | -6 | 0.4 | -6 | 7 | -13 | 3205 | 6
CC(C)[C@H](NS(=O)(=O)c1ccccc1)C(=O)OCC(=O)NC(=O)c1cccn1C | nt | nt | nt | nt | -11 | 2968 | 14
COC(=O)C1=C(c2ccc(OC)c(OC)c2)CC2CCC1N2C(=O)NCCOc1ccc(OC)cc1 (stereo not drawn) | -8 | 2.2 | 3 | 5 | nt | nt | nt
CC(=O)Nc1sc(C)c(C)c1C(=O)OCC(=O)N(CC(C)C)c1c(N)n(Cc2ccccc2)c(=O)[nH]c1=O | 19 | 3.4 | 7 | -3 | -19 | ? | 11
CCOc1ccc(CN2CCN(Cc3cc4ccccc4o3)CC2CCO)cc1 (stereo not drawn) | 2 | 1.2 | 5 | -1 | -9 | nt | 3

Two records drawn at random from the list so far:
SMILES | Sa ugtP lethal | Sa RN4220 lethal | Mtb hypoxia inh | Mtb hypoxia inh growth | PrP 5UTR inh | Autofluor counter | BJeLR viability
O=C(c1cc2c(s1)CCCC2)N1CCN(S(=O)(=O)c2ccccc2)CC1 | 4 | 1.9 | 1 | 0 | -31 | 4371 | -8
CCOc1ccc(S(=O)(=O)N2CCCCC2)cc1NC(=O)Cc1ccsc1 | -3 | -4.2 | -7 | 5 | -10 | 6128 | nt

Screening results as filed in PubChem.
